# DUX4 txn inh: inhibitors of DUX4-driven ZSCAN4 reporter expression, primary screen, 293T cells, Gaussia and Italica luciferase | 293T-iDUX4 ZSCAN4-Gaussia luciferase reporter, 24 h; stronger effect = lower value | activity change, negative = inhibition, % (test concentration not listed) | 37,000 tested, 0.8% active | AID 1224904, 2016;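 active means -10% or lower and over 25 points stronger than a control reporter; inconclusive means -10% or lower with a smaller gap; inactive means above -10%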;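 further: 0% = median of neutral control wells and -100% = median of positive control wells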
# DUX4 txn inh difference: also measured in DUX4 txn inh; calls as there; Gaussia minus Italica difference, %; measured here: selective DUX4 reporter inhibition;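 worked out from the two reporters; negative = selective loss of the DUX4 reporter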
# DUX4 txn inh control: further read-out of DUX4 txn inh, marked with its call; activity change, negative = inhibition, %; measured here: Italica tet-on control reporter;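 0 = neutral control and -100 = positive control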
# An asterisk follows results filed as active; ? = inconclusive; / = not tested or not shown; ! = not confirmed by another sample.
SMILES,DUX4 txn inh,DUX4 txn inh difference,DUX4 txn inh control
O=C(C[C@@H]1CC[C@@H]2[C@H](COC[C@H](O)CN2C(=O)c2cnccn2)O1)N1CCN(c2ccccc2)CC1,-1,1,-1.9
CCCNC(=O)N1CC2(CCN(Cc3ccc(F)cc3)CC2)c2c([nH]c3cc(OC)ccc23)[C@@H]1CO,-7,2,-9.8
CO[C@H]1CN(C)C(=O)c2cc(NS(=O)(=O)c3cn(C)cn3)ccc2OC[C@@H](C)NC[C@H]1C,-1,-3,2.3
C[C@@H]1CN([C@@H](C)CO)C(=O)c2cccc(NC(=O)c3cnccn3)c2O[C@H]1CN(C)C(=O)Nc1ccc2c(c1)OCO2,1,6,-5.1
CO[C@H]1CN(C)C(=O)c2ccc(NC(=O)Cc3ccccc3)cc2OC[C@H](C)N(C(C)=O)C[C@H]1C,-2,-9,6.3
CCC(=O)N1CC[C@@H]2[C@@H](CO)N(C)c3ccc(-c4ccc(C#N)cc4)cc3[C@@H]21,7,9,-1.5
O=C(c1ccccn1)N1C[C@@H]2[C@H](c3ccccc31)[C@@H](CO)N2C(=O)Nc1ccccc1Cl,2,3,-0.9
O=C(C[C@H]1CC[C@H]2[C@@H](COC[C@@H](O)CN2Cc2cccc(Cl)c2)O1)NCC1CCCCC1,?,/,/
O=S(=O)(Cc1ccccc1)N1CCCCN2[C@@H](CO)[C@@H](c3ccc(-c4cccnc4)cc3)[C@@H]2C1,-8,1,-8.5
CCS(=O)(=O)N(C)C[C@@H]1OCc2ccccc2-c2c(n(C)c3ccccc23)C(=O)N([C@H](C)CO)C[C@@H]1C,-2,-3,1.1
CNC(=O)C[C@@H]1CC[C@H]2[C@@H](COc3ccc(NC(=O)c4ccccc4Cl)cc3C(=O)N2C)O1,1,0,0.2
CO[C@@H]1CN(C)C(=O)c2ccc(NC(=O)Nc3cccc(F)c3)cc2OC[C@@H](C)N(C(=O)Nc2c(C)noc2C)C[C@@H]1C,0,-2,1.3
CO[C@H]1CN(C)C(=O)c2cc(NS(=O)(=O)CC(F)(F)F)ccc2OC[C@@H](C)N(Cc2ccccn2)C[C@H]1C,1,-1,2.0
O=C(CN1CCOCC1)N1CCCCN2[C@@H](CO)[C@H](c3ccc(C#Cc4ccccc4F)cc3)[C@@H]2C1,?,/,/
CCC(=O)N1CCC2(CC1)CN(C(=O)NC1CCCC1)[C@@H](CO)c1c2c2ccc(OC)cc2n1C,2,-1,3.2
CCCNC(=O)N1CC2(CN(C(=O)c3ccncc3)C2)c2c([nH]c3cc(OC)ccc23)[C@@H]1CO,15,7,7.7
CN(C)C(=O)c1ccc(-c2ccc3c(c2)[C@@H]2[C@@H](CCN2C(=O)c2cnccn2)[C@H](CO)N3)cc1,11,6,5.5
O=C(c1cccnc1)N1CC[C@@H]2[C@H](CO)Nc3ccc(C4=CCCCC4)cc3[C@@H]21,0,0,-0.9
O=C(NC[C@H]1[C@@H](c2ccccc2)[C@H](CO)N1C(=O)Cc1cccnc1)C1CC1,1,1,0.2
CO[C@H](CN(C)S(=O)(=O)c1cccc(Cl)c1)[C@H](C)CN(C(=O)Nc1ccccc1F)[C@@H](C)CO,-2,10,-12

# Full records, quoted from the list. Screens in order: DUX4 txn inh	DUX4 txn inh difference	DUX4 txn inh control
# Record of CO[C@H](CN(C)S(=O)(=O)c1cccc(Cl)c1)[C@H](C)CN(C(=O)Nc1ccccc1F)[C@@H](C)CO = -2	10	-12
# Record of O=C(NC[C@H]1[C@@H](c2ccccc2)[C@H](CO)N1C(=O)Cc1cccnc1)C1CC1 = 1	1	0.2
# Record of CNC(=O)C[C@@H]1CC[C@H]2[C@@H](COc3ccc(NC(=O)c4ccccc4Cl)cc3C(=O)N2C)O1 = 1	0	0.2
# Record of O=C(CN1CCOCC1)N1CCCCN2[C@@H](CO)[C@H](c3ccc(C#Cc4ccccc4F)cc3)[C@@H]2C1 = ?	/	/
# Record of O=C(c1cccnc1)N1CC[C@@H]2[C@H](CO)Nc3ccc(C4=CCCCC4)cc3[C@@H]21 = 0	0	-0.9

# Other structures
SMILES,DUX4 txn inh,DUX4 txn inh difference,DUX4 txn inh control
N#C[C@H]1N[C@@H](CO)[C@H]1c1ccc(C#CC2CCCCC2)cc1,-4,-3,-1.0
C[C@H](CO)N1C[C@H](C)[C@H](CN(C)C(=O)[C@H]2CCCN2C)OCc2ccccc2-c2ccccc2C1=O,-7,-6,-0.4
C[C@@H]1CN([C@@H](C)CO)S(=O)(=O)c2ccc(Br)cc2O[C@H]1CN(C)C(=O)C1CC1,1,1,0.3
O=C(c1ccccc1F)N1CC(=O)N2[C@@H](CO)[C@H](c3ccc(C#Cc4ccccc4)cc3)[C@@H]2C1,?,/,/
O=C(C[C@H]1CC[C@H]2[C@@H](COC[C@@H](O)CN2S(=O)(=O)c2ccc(F)cc2)O1)NCC1CC1,6,6,0.1
CCC(=O)N1[C@H](CO)[C@@H](c2ccc(-c3cccc(OC)c3)cc2)C12CN(C(C)=O)C2,4,-6,9.8
CN(C)C(=O)c1cccc(-c2ccc([C@H]3[C@@H](CO)N(C(=O)C4CC4)[C@H]3C#N)cc2)c1,-1,-3,1.8
O=C(C[C@H]1CC[C@H]2[C@@H](COC[C@H](O)CN2CC2CCOCC2)O1)NCc1ccc(Cl)cc1,-29*,-58*,29*
N#C[C@H]1[C@@H](c2ccc(C#CC3(O)CCCC3)cc2)[C@@H](CO)N1C(=O)C1CC1,1,-1,2.0
COc1cccc(-c2ccc3c(c2)[C@@H]2[C@@H](CCN2C(=O)CC2CC2)[C@H](CO)N3C)c1,-6,10,-17
COc1ccc(S(=O)(=O)N(C)C[C@@H]2OCc3cn(nn3)CCCC(=O)N([C@@H](C)CO)C[C@H]2C)cc1,-1,2,-2.9
O=C(C1CCCCC1)N1C[C@H]2[C@@H](c3ccccc31)[C@H](CO)N2Cc1ccccc1Cl,0,-2,2.4
CO[C@H]1CN(C)C(=O)c2ccc(NC(=O)Nc3ccccc3F)cc2OC[C@@H](C)N(C(C)=O)C[C@H]1C,-5,-2,-2.2
COc1ccc2c3c(n(C)c2c1)[C@@H](CO)NCC31CN(S(=O)(=O)c2cccc(F)c2)C1,-1,4,-4.8
OC[C@@H]1[C@H](c2ccc(-c3ccc(F)cc3)cc2)[C@H](CNC2CCCC2)N1CCC(F)(F)F,-1,0,-1.5
C[C@H]1CN([C@@H](C)CO)C(=O)CCCn2nncc2CO[C@H]1CN(C)C(=O)CCC(F)(F)F,2,4,-2.3
O=C(NC1CCCCC1)N1CC(=O)N2[C@@H](CO)[C@H](c3ccc(-c4ccncc4)cc3)[C@@H]2C1,5,-1,6.0
CO[C@@H]1CC[C@H]2CCOc3c(C#N)cccc3C(=O)N(C)CCCC(=O)N(C)C[C@H]1O2,-1,-1,0.4
CC(=O)N(C[C@@H]1N[C@@H](CO)[C@@H]1c1ccc(-c2cccnc2)cc1)C1CCCC1,2,2,0.0
C[C@@H]1CN([C@H](C)CO)C(=O)c2c(c3ccccc3n2C)-c2ccccc2CO[C@@H]1CN(C)Cc1ccc(C(=O)O)cc1,6,3,2.6
COCC#Cc1ccc([C@H]2[C@@H](CO)N3C(=O)CN(C(=O)Nc4ccccc4F)C[C@H]23)cc1,10,10,0.0
C/C=C/c1ccccc1[C@@H]1[C@H](C#N)N(c2nc(CC)cs2)[C@H]1CO,5,3,1.9
C[C@H]1CN([C@@H](C)CO)S(=O)(=O)c2ccc(Br)cc2O[C@H]1CN(C)C(=O)Nc1ccccc1F,5,-2,7.3
O=C(C[C@@H]1C[C@@H]2c3cc(NC(=O)Nc4ccccc4F)ccc3O[C@@H]2[C@@H](CO)O1)NC1CCCCC1,-8,-5,-3.1
CN1c2ccc(-c3ccccc3)cc2[C@@H]2[C@@H](CCN2C(=O)NC2CCCCC2)[C@@H]1CO,?,/,/
C[C@@H]1CN([C@@H](C)CO)C(=O)CCCn2cc(nn2)CO[C@H]1CN(C)Cc1ccccc1C(F)(F)F,-2,1,-2.2
CCCN1[C@@H]2c3ccc(-c4ccc(F)cc4)c(=O)n3C[C@@H]2[C@@H](CO)[C@@H]1C(=O)N[C@H](C)c1ccccc1,?,/,/
CCN1Cc2cc(C(=O)Nc3nccs3)nc(-c3cccc(C4=CCCC4)c3)c2[C@H]1CCO,-3,-1,-1.8
O=C(C[C@@H]1CC[C@@H]2[C@H](COC[C@H](O)CN2Cc2cccc(Cl)c2)O1)N1CCOCC1,8,9,-0.9
O=S(=O)(c1ccc(F)cc1)N1CCCCN2[C@@H](CO)[C@H](c3ccc(C#CC4CC4)cc3)[C@@H]2C1,-26*,-28*,1.8*
COc1ccc(C#Cc2ccc3c(c2)[C@@H]2[C@@H](CCN2S(=O)(=O)c2ccc(OC)cc2)[C@H](CO)N3C)cc1,4,-15,19
C[C@H]1CN([C@@H](C)CO)C(=O)CCCn2nncc2CO[C@@H]1CN(C)C(=O)c1ccc2ccn(C)c2c1,-2,-4,1.8
COCCNC(=O)[C@H]1[C@H](CO)[C@H]2Cn3c(ccc(C4=CCCCC4)c3=O)[C@@H]1N2C(=O)C1CC1,1,1,0.7
CNC[C@@H]1OCCCC[C@@H](C)Oc2ccc(NC(=O)Cc3ccccc3)cc2C(=O)N([C@H](C)CO)C[C@@H]1C,-4,-6,2.3
CCCC#Cc1ccc2c(c1)O[C@@H](CN(C)S(=O)(=O)c1cccc(F)c1)[C@H](C)CN([C@H](C)CO)S2(=O)=O,0,-3,3.1
CCCN1[C@@H]2Cn3c(ccc(-c4ccccc4OC)c3=O)[C@H]1[C@@H](C(=O)NCc1ccccn1)[C@@H]2CO,10,2,8.6
COc1cccc(-c2ccc([C@H]3[C@@H](CO)N4C(=O)CN(C(=O)NC(C)C)C[C@@H]34)cc2)c1,1,-4,5.5
COCC(=O)N1CCC2(CC1)CN(Cc1ccccc1Cl)[C@H](CO)c1[nH]c3cc(OC)ccc3c12,0,-1,0.8
CN(C)CC(=O)N[C@@H]1CC[C@@H](CCNC(=O)C2CCC2)O[C@@H]1CO,-2,-1,-0.8
COc1ccc(NC(=O)Nc2ccc3c(c2)C(=O)N([C@H](C)CO)C[C@H](C)[C@@H](CN(C)S(=O)(=O)c2c(C)noc2C)OCCCC[C@H](C)O3)cc1,-2,-3,1.7

# Three records drawn at random from those above:
SMILES,DUX4 txn inh,DUX4 txn inh difference,DUX4 txn inh control
CCCC#Cc1ccc2c(c1)O[C@@H](CN(C)S(=O)(=O)c1cccc(F)c1)[C@H](C)CN([C@H](C)CO)S2(=O)=O,0,-3,3.1
COCC(=O)N1CCC2(CC1)CN(Cc1ccccc1Cl)[C@H](CO)c1[nH]c3cc(OC)ccc3c12,0,-1,0.8
CN(C)CC(=O)N[C@@H]1CC[C@@H](CCNC(=O)C2CCC2)O[C@@H]1CO,-2,-1,-0.8

# Additional entries.
SMILES,DUX4 txn inh,DUX4 txn inh difference,DUX4 txn inh control
C[C@H](CO)N1C[C@H](C)[C@H](CN(C)S(=O)(=O)c2ccc(Cl)cc2)Oc2ccc(NC(=O)c3ccncc3)cc2C1=O,-4,-3,-0.2
C/C=C/c1ccc2c(c1)[C@H]1[C@H](CCN1C(=O)Cc1cccnc1)[C@@H](CO)N2C,4,-3,6.5
O=C(C[C@H]1CC[C@H]2[C@@H](COC[C@@H](O)CN2Cc2cc(F)ccc2F)O1)N1CCc2ccccc2C1,?,/,/
COc1cccc(CN2CC3(C2)[C@H](c2ccccc2)[C@@H](CO)N3Cc2ccccc2OC)c1,-36*,-26*,-10*
CN1CCN(C(=O)C[C@H]2CC[C@H]3[C@@H](COC[C@H](O)CN3Cc3cccc(F)c3)O2)CC1,6,10,-4.1
COc1cccc(-c2ccc(C3[C@H]4CNC[C@@H]3N4Cc3cncnc3)cc2)c1 (some centres not stated),8,7,1.7
CNC[C@@H]1Oc2cc(Br)ccc2S(=O)(=O)N([C@H](C)CO)C[C@H]1C,-5,-2,-3.1
COc1cccc(NC(=O)N2CC(=O)N3[C@H](CO)[C@@H](c4ccc(C#CC5CCCCC5)cc4)[C@H]3C2)c1,-7,2,-9.4
O=S(=O)(c1ccccc1)N1C[C@@H]2N[C@H](C1)C2c1ccc(-c2cccnc2)cc1 (some centres not stated),-13*!,-37*!,25*!
C[C@@H]1CN([C@H](C)CO)C(=O)c2cccc(NS(=O)(=O)c3cn(C)cn3)c2O[C@H]1CN(C)C(=O)Nc1ccc(F)cc1,2,-2,4.2
C[C@@H]1CN([C@@H](C)CO)C(=O)c2cc(NC(=O)CCN3CCOCC3)ccc2O[C@@H]1CN(C)S(=O)(=O)c1cccs1,-1,-6,5.3
Cc1noc(C)c1C(=O)N(C)C[C@@H]1OCc2ccccc2-c2c(n(C)c3ccccc23)C(=O)N([C@@H](C)CO)C[C@H]1C,4,1,3.4
CC(C)NC(=O)Nc1ccc2c(c1)C(=O)N([C@@H](C)CO)C[C@H](C)[C@H](CN(C)S(=O)(=O)c1ccc(F)cc1)OCCCC[C@@H](C)O2,4,1,3.1

# Compound activity deposited in PubChem by Broad Institute.

# Some of the compounds tested; the hit share may differ from the screen's.
